Bioassay records from PubChem.
Cruzain noTriton: cruzain (T. cruzi) inhibition without detergent | P25779 | purified cruzain, Z-FR-AMC fluorescence, no detergent | Potency, µM, for the others: max response, negative = inhibition, most hits filed as inhibitors | actives 2.3% (n = 200,000) | AID 1476; active means well fitted curve in the direction sought with a large enough effect; inconclusive means small, poorly fitted or top-dose-only effect, or another doubt; inactive means no such curve, though single readings can be large; an effect the other way counts as inactive or inconclusive;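 further: plate controls were enzyme without inhibitor for no effect and buffer without enzyme for full effect; nearly all actives have a fitted effect of over 40% in size; top concentration of the series not given in the record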
Target sequence (P25779 123-467 limits assumed): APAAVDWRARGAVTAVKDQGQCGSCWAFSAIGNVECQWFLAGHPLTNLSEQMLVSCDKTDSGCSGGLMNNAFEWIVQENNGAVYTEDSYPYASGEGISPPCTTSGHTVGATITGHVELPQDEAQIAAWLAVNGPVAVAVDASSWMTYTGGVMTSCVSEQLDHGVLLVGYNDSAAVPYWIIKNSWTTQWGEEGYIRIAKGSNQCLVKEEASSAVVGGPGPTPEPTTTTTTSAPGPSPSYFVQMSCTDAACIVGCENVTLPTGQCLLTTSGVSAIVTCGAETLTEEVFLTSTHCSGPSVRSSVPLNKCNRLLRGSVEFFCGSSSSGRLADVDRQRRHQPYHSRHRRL
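Detergent-free condition (0.00005% Triton X-100) in acetate buffer pH 5.5 with DTT. 1.5 nM enzyme and compound were pre-mixed 15 min, then 2 uM Z-FR-AMC substrate added; reaction progress from fluorescence change between first and third reads (60 s).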
NS1 function inh: inhibitors of influenza NS1 protein function. S. cerevisiae slowed by influenza A NS1, growth recovery by OD600. Potency, µM (titrated, usually from 46.1 µM), for inactives: at the top dose activity, positive = more growth. actives 0.4% (n = 270,000); further: actives are rising curves; nearly all actives have a fitted effect of over 50% in size
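In this qHTS, NS1 from influenza A is expressed in budding yeast, where it slows growth. Cells are switched from glucose to 2% galactose medium (pH 6.0, -URA), treated with compound, and growth recovery is read at OD600.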
StopGo reporter: lowers the luciferase signal of an FMDV 2A StopGo reporter; human cells with a luciferase reporter of 2A StopGo recoding; control for the full effect not named in the record; Potency, µM (highest dose often 57.9 µM), for the others: at the top dose signal change, negative = less light; actives 1.2% (n = 410,000); AID 1159524; active = well fitted falling curve with a large enough effect; inconclusive = small, poorly fitted or top-dose-only effect; inactive = no such curve, though single readings can be large or run the other way; tested in HEK293T cells; further: on the % scale 0 is the no-effect control and ±100 the full control effect; nearly all actives have a fitted effect of over 45% in size; luciferase light after 4 h
RE007 growth inh: less growth of the S. pombe RE007 Vpr strain; actives 0.21% (n = 360,000); Potency, µM (titrated, usually from 92.2 µM), for inactives: at the top dose activity change, negative = less growth; AID 651644; S. pombe RE007 Vpr strain, BacTiter-Glo ATP luminescence, 24 h; control for the full effect not named in the record; active = well fitted falling curve with a large enough effect; inconclusive = small, poorly fitted or top-dose-only effect; inactive = no such curve, though single readings can be large or run the other way;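 further: on the % scale 0 is the no-effect control and ±100 the full control effect; nearly all actives have a fitted effect of over 50% in size; the assay follows cell death caused by Vpr and the record does not say whether a fall means rescue or toxicity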
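Fission yeast strain RE007, carrying one chromosomally integrated HIV-1 vpr copy, was seeded at OD 0.01 in PMG+AL medium with 23 nL pinned compound. After 24 h at 30 °C and 99% humidity, viability was read by BacTiter-Glo luminescence.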
SARS PLpro yeast: inhibitors of SARS-CoV papain-like protease in yeast; actives 0.19% (n = 330,000); S. cerevisiae expressing SARS-CoV PLpro, growth rescue; control for the full effect not named in the record; AID 485353; Potency, µM (doses to about 32.9 µM), for the others: at the highest dose activity, positive = growth rescue; further: 0% is about no effect; nearly all actives have a fitted effect of over 55% in size; growth read by luminescence after 48 h
MARV entry inh: blocks Marburg virus binding to or entry into cells. actives 1.8% (n = 300,000). Potency, µM (series often up to 37.8 µM), for the others: at the top dose activity change, negative = inhibition, most hits filed as inhibitors. Marburg virus pseudotyped entry inhibition, cell reporter; control for the full effect not named in the record; about a third of the inactives were read at about 46 µM; active = well fitted inhibition curve with a large enough effect; inconclusive = small, poorly fitted or top-dose-only effect, or effect the other way; inactive = flat fitted curve, though single readings scatter; tested in HEK293 cells; about a fifth of its hits are not listed in these tables; further: on the % scale 0 is the no-effect control and ±100 the full control effect; luciferase read-out
Lassa entry inh: inhibitors of Lassa virus binding or cell entry; Potency, µM (doses to about 37.9 µM), for inactives: at the top dose activity change, negative = inhibition, usual class: inhibitors; actives 1.2% (n = 300,000); AID 540256; Lassa virus pseudotype entry inhibition, cell reporter; control for the full effect not named in the record; active means well fitted inhibition curve with a large enough effect; inconclusive means small, poorly fitted or top-dose-only effect, or effect the other way; inactive means flat fitted curve, though single readings scatter; tested in HEK293 cells; further: on the % scale 0 is the no-effect control and ±100 the full control effect; nearly all actives have a fitted effect of over 50% in size; luciferase read-out
Cruzain inh Det: blocks cruzain activity in presence of Triton detergent; Potency, µM, without a hit: max response, negative = inhibition, hits mostly inhibitors; AID 1478; actives 0.43% (n = 200,000); P25779; purified cruzain, Z-FR-AMC fluorescence, 0.01% Triton; active means well fitted curve in the direction sought with a large enough effect; inconclusive means small, poorly fitted or top-dose-only effect, or another doubt; inactive means no such curve, though single readings can be large; an effect the other way counts as inactive or inconclusive;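 further: plate controls were neutral wells for no effect and buffer without enzyme for full effect; nearly all actives have a fitted effect of over 40% in size; top concentration of the series not given in the record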
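Compounds were screened in titration against cruzain (1.5 nM) with 0.01% Triton X-100 to counter colloidal aggregation. Activity was the AMC fluorescence increase over 60 s after adding 2 uM Z-FR-AMC at pH 5.5.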
* marks the source's active call; other numbers are inactive results; ? = inconclusive; . = no result given; & = joins results of further samples; [ ] = remark or other dose. Unless noted, the call rests on the fitted dose curve; in most records, active means well fitted rising curve with a large enough effect; inconclusive means small, poorly fitted or top-dose-only effect; inactive means no such curve, though single readings can be large or run the other way. Potency means the concentration at half of the fitted maximal effect.

The opening 2 entries, ahead of the listing:
SMILES	Cruzain noTriton	NS1 function inh	StopGo reporter	RE007 growth inh	SARS PLpro yeast	MARV entry inh	Lassa entry inh	Cruzain inh Det
COc1ccccc1-n1cc(CN2CCN(CC=C(C)C)C(CCO)C2)cn1 (stereo not given)	.	2%	-23%	4%	1%	.	.	.
CC(=O)Nc1ccc(S(=O)(=O)Nc2nccc(/C=C/c3ccc(Cl)cc3)n2)cc1	-7%	10%	-21%	4%	-14%	?	?	-6.7%

This part in full, from the start:
SMILES	Cruzain noTriton	NS1 function inh	StopGo reporter	RE007 growth inh	SARS PLpro yeast	MARV entry inh	Lassa entry inh	Cruzain inh Det
COc1ccccc1-n1cc(CN2CCN(CC=C(C)C)C(CCO)C2)cn1 (stereo not given)	.	2%	-23%	4%	1%	.	.	.
CC(=O)Nc1ccc(S(=O)(=O)Nc2nccc(/C=C/c3ccc(Cl)cc3)n2)cc1	-7%	10%	-21%	4%	-14%	?	?	-6.7%
CC(C(=O)NCCS(=O)(=O)c1ccc(Br)cc1)S(=O)(=O)c1ccc(Cl)cc1 (stereo not given)	.	-8%	-16%	6%	-1%	?	16%[46.1 µM]	.
O=C(N1CCCC1)C12CCC3CC(CC(C3)C1)C2	-7%	-11%	-16%	45%	-4%	-4%	5%	-0.4%
Cc1cnn(C(=S)NCC2CCCO2)c1 (stereo not given)	-1%	8%	33%[activator]	-18%	7%	-18%	9%	-12%
Cc1ccccc1OCC(=O)NCC(=O)OCc1ccc(Br)cc1	.	-23%	-12%	0%	-7%	?	?	.
CCOc1ccc2nc(NC(=O)c3cccc(-c4cc5ccccc5oc4=O)c3)sc2c1	13µM*	14%	5%	12%	6%	?	15%	-2.3%
CC1CCCN(CC(O)COc2ccc(-c3ccccc3)cc2)C1 (stereo not given)	.	-10%	-24%	3%	-1%	?	8%	.
CN1CCN(c2ccc(Cl)cc2N)CC1	.	5%	3%	0%	0%	.	.	.
CCN(C(=O)COc1ccc(C(=O)c2ccccc2)cc1)c1ccccc1	.	-16%	-27%	6%	0%	?	?	.
C=CCN(CC=C)C(=O)CN1C(=O)NC(c2ccccc2)(c2ccccc2)C1=O	.	-3%	2%	0%	3%	0%[46.1 µM]	-13%	.
CCOC(=O)C1(CCOc2ccccc2)CCN(Cc2cccc(-n3cccn3)c2)CC1	.	-2%	?	2%	0%	?	?	.
Cc1cc(C)n(C(=O)c2cc3c(s2)CCCC3)n1	10%	-17%	?	-18%	4%	10%	14%	-3.2%
COC(=O)Cc1cc(=O)[nH]c(/N=C(\N)Nc2ccccc2C)n1	7%	8%	.	-19%	9%	8%	0%	-0.9%
CC(C)(C)NC(=O)CN(C(=O)CS(=O)CC(=O)Nc1ccc(F)cc1)c1ccc(F)c(Cl)c1 (stereo not given)	?	4%	5%	-6%	5%	-3%&-18%	-14%	0.4%
Cc1ccc(C)c(NC(=O)c2nnn(Cc3ccccc3C)c2N)c1	-1%	-82%	23%	-3%	-20%	-12%	-7%	-8.9%
COc1ccc(CCNC(=S)N2CCN(S(=O)(=O)c3cccc(F)c3)CC2)cc1	.	.	-1%	-3%	0%	-10%	10%	.
Cc1nnc(C)c2c(C)n(-c3ccc4ncccc4c3)c(C)c12	.	2%	7%	10%	1%	-25%[46.1 µM]	0%[46.1 µM]	.
Cc1ccccc1CNC(=O)c1ccc(-c2nc(CS(=O)(=O)c3ccccc3)c(C)o2)cc1	-24%	.	?	.	.	.	-13%[46.1 µM]	-5.1%
Cc1ccc(C(=O)c2cn[nH]c2-c2cc(Cl)ccc2O)cc1	-1%	-123%	.	6%	-21%	3%	11%	-8.1%

Six compounds from above, reduced to StopGo reporter and Lassa entry inh:
| Structure | StopGo reporter | Lassa entry inh |
| --- | --- | --- |
| CN1CCN(c2ccc(Cl)cc2N)CC1 | 3% | . |
| CCN(C(=O)COc1ccc(C(=O)c2ccccc2)cc1)c1ccccc1 | -27% | ? |
| C=CCN(CC=C)C(=O)CN1C(=O)NC(c2ccccc2)(c2ccccc2)C1=O | 2% | -13% |
| CCOC(=O)C1(CCOc2ccccc2)CCN(Cc2cccc(-n3cccn3)c2)CC1 | ? | ? |
| Cc1cc(C)n(C(=O)c2cc3c(s2)CCCC3)n1 | ? | 14% |
| COC(=O)Cc1cc(=O)[nH]c(/N=C(\N)Nc2ccccc2C)n1 | . | 0% |

(more compounds)
SMILES	Cruzain noTriton	NS1 function inh	StopGo reporter	RE007 growth inh	SARS PLpro yeast	MARV entry inh	Lassa entry inh	Cruzain inh Det
O=C(Nc1ccnc(-c2cccnc2)n1)c1ccc(Cl)c(Cl)c1	-4%	-15%	23%	-1%	5%	-11%	3%	3.1%
COc1ccc(OC)c(NC(=O)c2csc(Cl)c2OC)c1	.	-47%	7%	-10%	-4%	.	.	.
COc1ccc(N2CCN(C(=O)CCCN3C(=O)c4cccc5cccc(c45)C3=O)CC2)cc1	?	9%	?	4%	1%	?	?	-3.1%
Cc1ccc(C(=O)Nc2ccncc2)o1	-13%	8%	-1%	-3%	0%	-3%	2%	5.1%
Cc1ccc(C)c(NC(=O)c2cc(C)nc3ccccc23)c1	.	-18%	-12%	4%	-3%	.	.	.
O=C(Nc1ccccc1C(F)(F)F)N1CCN(c2ccc3nncn3n2)CC1	-5%	3%	-11%	1%	1%	17%	-13%	0.2%
COc1ccccc1CNC(=O)CN1C(=O)CSc2ccc(S(=O)(=O)N3CCCC3)cc21	1%	.	-3%&-15%	-6%	2%	.	-14%[46.1 µM]	-3.5%
CC1=C(C(=O)Nc2cccnc2)C(c2ccccc2)n2nc(-c3ccc(O)cc3)nc2N1 (stereo not given)	-4%	.	7%	.	.	1%[46.1 µM]	6%[46.1 µM]	-3.4%
CC(C)(C)C(=O)c1no[n+]([O-])c1/C(=N/O)C(C)(C)C	-9%	-176%	?	0%	-7%	-10%	-18%	-6.3%
CCCC(=O)Nc1ccc(NC(=O)c2ccccc2F)cn1	.	-6%	53%[activator]	0%	-7%	.	.	.
Cc1ccc(SCCNC(=O)c2cccc([N+](=O)[O-])c2C)cc1	2%	-153%	-12%	-1%	-27%	3%[46.1 µM]	2%	-5.5%
Cc1cccc(NC(=O)c2ccccc2OCC(=O)N2CCOCC2)c1C	7%	-6%	-5%	2%	11%	22%	-3%	3.0%
CC(C)c1cc(N2CCN(C(=O)c3ccco3)CC2)n2c(nc3ccccc32)c1C#N	4%	-2%	-21%	7%	3%	.	.	-6.1%
COc1ccc(C(=O)c2oc3ccccc3c2NC(=O)COc2cccc(C)c2)cc1	-5%	.	26%	.	.	.	11%[46.1 µM]	0.0%
COc1cccc(-n2c(CN3CCN(c4ccccc4)CC3)nc3ccc([N+](=O)[O-])cc3c2=O)c1	-27%	21%	-23%	11%	?	?	?	-6.2%
COc1ccc(-c2nc(C)c(CCNC(=O)c3cccs3)s2)cc1OC	?	.	27%	.	.	.	-2%[46.1 µM]	-5.9%
Cc1ccc(C2c3[nH]c4ccccc4c3C[C@H]3C(=O)N(c4ccccc4C(=O)N4CCC(C(=O)O)CC4)C(=O)N23)cc1 (stereo not given in full)	.	3%	-13%	-6%	-5%	.	.	.
Cc1ccc2oc(-c3cc(NC(=O)CC(C)C)ccc3Cl)nc2c1	-2%	.	-12%	.	.	10%[46.1 µM]	14%[46.1 µM]	5.2%
CC(C)c1ccc(NC2CCCN(C(=O)CCN3CCCCC3=O)C2)cc1 (stereo not given)	.	-4%	0%	-11%	?	0%	4%	.
Cc1cc(C)n2nc(CC(=O)NNC(=O)c3ccc(N(C)C)cc3)nc2n1	.	10%	-4%	8%	-1%	?	0%[46.1 µM]	.
COc1ccc(NC(=O)Cn2nc3n(c2=S)CCC3)cc1	-3%	0%	6%	1%	1%	0%	1%	8.0%
CCc1nnc(NC(=O)c2nc(S(C)(=O)=O)ncc2Cl)s1	-1%	.	?	.	.	-2%[46.1 µM]	-9%[46.1 µM]	-2.4%
Cn1c(SCC(=O)Nc2ccc(Br)cc2)nc(O)cc1=O	.	?	-18%	1%	3%	?	1%[46.1 µM]	.
CCOC(=O)c1[nH]c(C)c(C(=O)NC2CCCCC2)c1C	-1%	-7%	-8%	-3%	6%	.	.	0.2%
CC(=O)Nc1cccc(C(=O)OCC(=O)NCc2cc(C)c(O)c(C)c2)c1	.	.	19%	-6%	0%	10%	?	.
O=C(CSc1nnc(COc2ccccc2)o1)NC1CC2CCC1C2 (stereo not given)	.	-4%	10%	-20%	1%	?	-13%	.
CCOc1nc(NCCO)nc(NCCC2=CCCCC2)n1	4%	0%	0%	9%	1%	5%	-13%	-6.7%
O=C(NCCc1cccc(Cl)c1)c1cccnc1	8%	-10%	55%[activator]	18%	3%	24%	10%	3.4%
Cc1ccc2c(c1)N(CC(=O)NCCCN1CCOCC1)C(=O)C(C(C)C)O2 (stereo not given)	.	.	6%	-9%	2%	13%	1%	.
CCc1cc(C(=O)c2ccc(OC)cc2)c(NC(=O)CC(C)(C)CC(=O)O)s1	.	-3%	-9%	1%	4%	.	.	.
COc1ccc(C(CNC(=O)C(=O)NC2CCCCC2)N2CCN(C)CC2)cc1 (stereo not given)	.	.	-7%	6%	.	-11%	-8%	.
CN1CCc2nc3sc(C(=O)c4ccc(F)cc4)c(N)c3cc2C1	-1%	.	8%	.	.	?	?	-6.2%
Cn1c(=O)c2c(nc(NCCOc3ccc(C(C)(C)C)cc3)n2C)n(C)c1=O	17%	17%	?	2%	4%	?	10%	-0.6%
Cc1ccc(C2=NN(CC(=O)NCc3cccnc3)C(=O)CC2)cc1	-7%	-1%	.	.	10%	.	.	-1.7%
COc1ccc(Cl)cc1C(=O)NNC(=O)c1cccc(S(=O)(=O)N(C)C)c1	20%	0%	-12%	3%	-4%	?	?	-1.4%
Cc1ccccc1NS(=O)(=O)c1cccc2nsnc12	.	7%	22%	2%	-1%	-3%	-19%	.
CCOC(=O)C1CN(S(=O)(=O)c2cccc(C(F)(F)F)c2)c2cc(CC(=O)OC)ccc2O1 (stereo not given)	10%	-51%	-12%	2%	11%	13%	1%	-5.5%
